Insulin prom inh – TRM-6 insulin promoter activity inhibition. inhibition, % at 2 µM. actives 0.9% (n = 130,000). AID 1273. TRM-6 cells (human fetal islet line), insulin promoter-eGFP reporter, imaging; reporter expression induced with tamoxifen;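 active = inhibition above the mean plus 3 SD, with well images judged a real hit on visual review, cut at about 60% in these data, passing the limit was not always enough; inconclusive = inhibition over the cutoff but images rejected on review; inactive = inhibition not above the cutoff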
GALR2 ag – activates the human galanin receptor 2; O43603; GALR2-expressing cells, agonist activation read-out; activation, %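 (tested at 5 µM)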; actives 0.48% (n = 140,000); AID 803;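 active = above mean plus 3 SD of all compounds, about 5% in these data, not always enough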;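 also: 0% = vehicle buffer wells and 100% = reference agonist at full effect; tested in CHO reporter cells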
RGS16-Gao HTS – modulates binding between human RGS16 and Galphao; O15492+P09471; bead-based flow cytometry RGS16-Galphao binding, fluorescence; actives lie on both sides; binding response (% of control), % at 10 µM; actives 0.38% (n = 220,000); AID 1441;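 active = below 25% or above 175%, edge rows of some plates excepted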;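 also: Galphao activated by GDP with aluminum fluoride before binding; 100% = wells without compound and 0% = beads without RGS; some results beyond the cut were filed as inactive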
PKD1 kinase inh – PKD1 (human) kinase inhibition. Q15139. PKD1 kinase fluorescence polarization assay. inhibition, %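 (about 10 µM by stock and volumes)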. actives 0.056% (n = 200,000);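 active = inhibition of 50% or more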;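 also: controls were vehicle for no effect and a reference inhibitor for full effect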
Target sequence (Q15139 whole entry, looked up): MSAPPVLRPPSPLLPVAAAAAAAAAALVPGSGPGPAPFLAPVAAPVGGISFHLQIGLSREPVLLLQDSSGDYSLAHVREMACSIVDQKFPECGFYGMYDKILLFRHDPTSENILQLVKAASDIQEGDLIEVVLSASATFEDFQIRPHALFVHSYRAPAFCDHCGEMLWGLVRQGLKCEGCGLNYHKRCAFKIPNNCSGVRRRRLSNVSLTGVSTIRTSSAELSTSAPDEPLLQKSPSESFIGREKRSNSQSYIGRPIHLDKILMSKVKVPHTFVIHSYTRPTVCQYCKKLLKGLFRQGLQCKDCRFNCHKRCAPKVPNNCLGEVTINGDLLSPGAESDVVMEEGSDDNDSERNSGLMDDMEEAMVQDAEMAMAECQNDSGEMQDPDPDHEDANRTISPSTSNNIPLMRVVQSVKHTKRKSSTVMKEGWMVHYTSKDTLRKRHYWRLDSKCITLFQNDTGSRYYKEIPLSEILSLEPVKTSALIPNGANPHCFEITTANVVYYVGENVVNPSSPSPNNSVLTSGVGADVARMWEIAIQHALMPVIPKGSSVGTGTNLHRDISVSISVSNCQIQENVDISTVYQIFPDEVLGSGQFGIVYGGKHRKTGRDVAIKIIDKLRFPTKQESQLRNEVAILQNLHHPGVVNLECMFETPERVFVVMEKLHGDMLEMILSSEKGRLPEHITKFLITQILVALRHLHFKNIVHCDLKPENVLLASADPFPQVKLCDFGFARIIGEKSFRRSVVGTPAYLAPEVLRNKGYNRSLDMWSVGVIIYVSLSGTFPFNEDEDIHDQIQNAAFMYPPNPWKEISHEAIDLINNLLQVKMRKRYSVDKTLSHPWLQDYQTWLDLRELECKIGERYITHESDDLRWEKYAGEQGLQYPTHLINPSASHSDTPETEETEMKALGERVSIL
HSV augment – increases HSV replication in cells; actives 0.005% (n = 220,000); HSV replication augmentation in cells, fold increase; maximum fold increase; AID 1956;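 active = peak rise of 1.5-fold or more in the series; inconclusive = self-fluorescent or not available for retest; tested in PC3 cells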;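 also: first round at 10 µM; read as green reporter fluorescence; hits show the peak of a series up to 25 µM; 1 = signal of infected wells without compound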
Insulin prom inh cell count – further read-out of Insulin prom inh, marked with its call; normalized cell count, %; measured here: cell count, toxicity; reference of the scale not given here;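 cells exposed to compound for 48 h; stained nuclei by imaging scaled within each plate; lower means fewer cells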
HSV augment primary fold – recorded beside HSV augment, whose call it bears; fold increase; compound at 10 µM; measured here: primary screen fold increase 10 uM; tested in PC3 cells;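 GFP signal in the first replicate; 1 = infected wells without compound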
Numbers without * were called inactive; i = inactive; ? = inconclusive; / = not tested or not shown. Random draw from the library; 1.3% or so of the library scored in one or more.

SMILES	Insulin prom inh	Insulin prom inh cell count	GALR2 ag	RGS16-Gao HTS	PKD1 kinase inh	HSV augment	HSV augment primary fold
Cc1ccc(N2C(=O)[C@@H]3[C@H](C2=O)C2CCCN2[C@@H]3C(=O)c2ccccc2)cc1 (some centres not stated)	22	46	-1.4	100	5	i	0.94
COc1cc(NC(=O)c2c3c(nc4ccccc24)CCC3)cc(OC)c1	-54	110	-4.3	106	0	i	1
CN=CC1=C(O)CC(C)(C)CC1=O	/	/	-2.2	98	3	i	0.94
O=C(COc1ccc2c(c1)CCC2)N1CCN(c2cccc(C(F)(F)F)c2)CC1	19	49	-0.2	109	3	i	1.1
C=C(C)CNC(=S)NNC(=O)c1ccc(Br)cc1	-3	89	-0.3	96	4	i	1
C=CCNC(=O)c1onc(CSc2cccc(OC)c2)c1C(=O)NCC=C	/	/	/	105	/	i	0.59
O=C(Oc1ccccc1Cl)c1ccccc1P(=O)(O)O	-39	58	-2.5	97	2	i	0.8
Cc1ccc(C)c(NC(=S)N2CCCCCC2)c1	/	/	-0.8	98	11	i	0.95
Cc1csc(NC(=O)c2cc(=O)[nH]c3ccc(S(=O)(=O)N4CCOCC4)cc23)n1	-15	146	/	105	-1	i	0.95
O=C1CSC(c2ccccc2[N+](=O)[O-])N1CCc1ccccc1 (configuration not stated)	-6	74	/	99	-3	i	0.91
O=C1/C(=C/c2cccnc2)SC(=S)N1c1ccc(O)cc1	/	/	/	107	/	i	0.91
Cc1ccc2cc(C#N)c(SCC(=O)NCC3CCCO3)nc2c1 (configuration not stated)	/	/	-1.1	98	-3	i	0.83
Nc1[nH]ncc1-c1ccccc1	3	56	/	87	-3	i	0.93
Cc1cnc(C(=O)OCC(=O)Nc2cc(Cl)cc(Cl)c2)cn1	-9	42	-1.8	109	-4	i	1
O=c1c2ccccc2nnn1CCN1CCOCC1	/	/	/	99	3	i	1.1
CC(C)(C)OC(=O)NCCCCCc1nnc(SCc2c(F)cccc2Cl)o1	/	/	/	90	/	i	0.99
COCCNC(=O)c1ccc2c(=O)n(CCCN3CCCC3=O)c(=S)[nH]c2c1	50	88	/	99	3	i	0.88
CCN(CC)CCCNC(=O)c1nn(-c2ccc(OC)cc2OC)c(=O)c2ccccc12	/	/	0.7	102	-3	i	0.96
CC(C)C[C@H](NC(=O)c1[nH]cnc1C(=O)N[C@H](C)c1ccccc1)C(=O)OCc1ccccc1	/	/	/	99	5	i	0.8
CC(C)(C)n1ncc2c(=O)n(CC(=O)NCCc3ccccc3)cnc21	33	116	-2.0	97	-5	i	0.95
CCC1CCCCN1C(=O)Cn1c(=O)n(CCC(=O)NCc2ccco2)c(=O)c2sccc21 (configuration not stated)	/	/	-1.2	99	-17	i	0.76
O=C(COC(=O)CCSc1ccccc1Cl)Nc1ccc(F)cc1F	/	/	-1.0	99	-2	i	1.2
Cc1ccccc1OCC(=O)NC(=S)Nc1ccc(N2CCOCC2)c(Cl)c1	0	102	-1.2	92	9	i	0.82
Cc1cc(C)c(C)c(S(=O)(=O)N2CCN(CC(=O)c3c(N)n(Cc4ccccc4)c(=O)n(C)c3=O)CC2)c1C	22	74	-0.8	90	-1	i	0.66
COc1ccccc1OCc1ccc(C(=O)NN)cc1	-4	157	-3.2	115	-2	i	1.1

The list continues:
SMILES	Insulin prom inh	Insulin prom inh cell count	GALR2 ag	RGS16-Gao HTS	PKD1 kinase inh	HSV augment	HSV augment primary fold
CCN1CCN(S(=O)(=O)c2cc(OCC(=O)NC3CCCCC3)c(C)cc2Cl)CC1	-35	99	-3.8	102	-2	i	1
COc1ccccc1C(=O)NC(CCSC)C(=O)OC(C)C(N)=O (configuration not stated)	/	/	/	104	-2	i	1.1
O=C(CSc1nccc(=O)[nH]1)Nc1ccc(F)c(Cl)c1	12	58	1.8	101	-6	i	1.1
CCc1cccc(C)c1NC(=O)CSc1nnc(-c2ccco2)n1N	/	/	-2.2	99	-8	i	0.82
Cc1cccc(NC(=O)C2CCN(S(=O)(=O)c3c(C)nn(C)c3C)CC2)n1	/	/	-0.4	104	1	i	1.1
CSc1cccc(NC(=O)CCCOc2ccc(Cl)cc2C)c1	-21	58	-0.5	113	0	i	1.1
COc1ccc(N2C(=O)CSC23CCCCC3)cc1	-29	130	-2.0	98	-7	i	0.86
Cc1cc(NC(=O)CSc2n[nH]c(CC(C)C)n2)no1	-23	110	-1.4	106	0	i	0.94
CC(=O)c1sc2nc(-c3cccs3)cc(C(F)(F)F)c2c1N	/	/	0.0	95	5	?	/
O=C1c2ccccc2C(O)N1Cc1ccco1 (configuration not stated)	-57	59	1.1	100	2	i	0.74
Cc1ccc(C(C2=C(O)CC(C)(C)CC2=O)C2C(=O)CC(C)(C)CC2=O)o1 (configuration not stated)	/	/	-2.5	98	3	i	1
O=C(CSc1nnnn1-c1ccc(Cl)cc1)N1CCc2ccccc2C1	29	41	-1.6	92	4	i	1.1
O=C(O)c1ccc(S(=O)(=O)c2ccc3c(c2)C(=O)N(Cc2ccco2)C3=O)cc1	41	143	-0.2	99	2	i	0.98
Cc1ccc(CSc2ccc3nnc(-c4cccnc4)n3n2)cc1	/	/	1.4	99	-8	i	0.98
O=C(Nc1nc2c(s1)CN(Cc1ccccc1)CC2)c1cccc(S(=O)(=O)N2CCc3ccccc32)c1	-25	97	0.0	96	-5	i	1.1
CS(=O)(=O)N(CC(=O)N1CCN(c2cccc(Cl)c2)CC1)c1cccc(F)c1	-6	99	-0.1	96	-6	i	0.89
O=P(OC1CCCCC1)(OC1CCCCC1)C(O)c1ccc(Cl)cc1Cl (configuration not stated)	4	139	-1.6	70	-5	i	0.99
O=C(Nc1ccncc1)c1ccccc1-c1ccccc1	/	/	/	98	1	i	0.98
CCOC(=O)C1CCN(c2c(NCCCN3CCCCC3)c(=O)c2=O)CC1	/	/	/	98	/	i	0.91
COC(=O)c1ccccc1N(C)S(C)(=O)=O	-8	44	-1.0	109	-6	i	1
Cc1ccc(NC(=O)CC2S/C(=N/c3nccs3)N(C)C2=O)c(C)c1 (configuration not stated)	-32	46	-1.5	94	-5	i	1
COc1ccc(/C=C2\SC(=O)N(CCC(=O)Nc3ccc(S(=O)(=O)Nc4nccs4)cc3)C2=O)cc1	/	/	0.5	102	-2	/	/
COC(=O)c1sccc1NC(=S)Nc1ccc(C)cc1	/	/	/	101	/	i	1.1
O=C(CSc1nc2ccccc2s1)NC1CCCc2ccccc21 (configuration not stated)	/	/	0.0	96	-3	i	1.1
Cc1noc(C)c1C(=O)N1CCC(CO)(Cc2ccccc2)CC1	/	/	/	100	-7	i	1

Limited to GALR2 ag, HSV augment and PKD1 kinase inh (three entries from above):
mol,GALR2 ag,HSV augment,PKD1 kinase inh
O=C(Nc1nc2c(s1)CN(Cc1ccccc1)CC2)c1cccc(S(=O)(=O)N2CCc3ccccc32)c1,0.0,i,-5
Cc1ccc(NC(=O)CC2S/C(=N/c3nccs3)N(C)C2=O)c(C)c1 (configuration not stated),-1.5,i,-5
CS(=O)(=O)N(CC(=O)N1CCN(c2cccc(Cl)c2)CC1)c1cccc(F)c1,-0.1,i,-6

Next structures:
SMILES	Insulin prom inh	Insulin prom inh cell count	GALR2 ag	RGS16-Gao HTS	PKD1 kinase inh	HSV augment	HSV augment primary fold
CCOc1ccc(NC(=O)Nc2cnccn2)cc1	-27	100	/	105	-1	i	0.93
CN(C)c1ccc2c3c(ccc(N(C)C)c13)COC2	/	/	/	96	2	i	1.1
CC(C)Cn1c(NCCO)nc2ccccc21	3	118	-1.8	97	-2	i	0.78
CC(C)Cc1nc2oc3c(N4CCN(CCO)CC4)ncnc3c2c2c1CCCC2	/	/	2.0	201	-8	i	0.54
Oc1ccccc1-c1cc(C(F)(F)F)[nH]n1	/	/	/	100	/	i	0.9
CSc1nc(C)c(Cc2ccccc2)c(=O)[nH]1	-25	97	/	103	-5	i	0.88
COc1cccc(C(C(=O)NC2CCCCC2)N(CCN2CCOCC2)C(=O)C2COc3ccccc3O2)c1 (configuration not stated)	24	39	/	103	-3	i	0.89
O=C(NC(=S)Nc1cc(S(=O)(=O)N2CCOCC2)ccc1N1CCOCC1)C1CCCC1	-18	129	/	107	0	i	1.1
CSc1c(-c2ccccn2)c(N)nn1C(=O)C1CCC1	/	/	/	106	/	i	1
CCOC(=O)c1c(C2CC2)csc1NC(C)=O	-50	121	-0.4	105	-1	i	0.91
C=CCNC(=O)C1CCC(C(=O)NCC=C)CC1 (configuration not stated)	/	/	/	97	1	i	0.84
CC(C)CNC(=O)c1ccccc1NC(=O)c1ccccc1N(C)S(C)(=O)=O	47	86	-4.0	114	-2	i	1
COc1ccc(NC(=O)CN(c2cc(C)cc(C)c2)S(=O)(=O)c2c(C)noc2C)cc1	/	/	-0.6	102	-4	i	0.76
COc1ccc(N2CCN(C(=O)c3ccc(SC)cc3OC)CC2)cc1	/	/	/	97	9	i	0.85
COc1ccc(CCNC(=O)CC2SC(=NCc3ccccc3OC)NC2=O)cc1 (configuration not stated)	/	/	/	95	-6	i	0.98
COc1ccccc1NC(=O)CCSc1nc(C)cc(C)n1	/	/	/	80	-7	i	1
Cc1cccc(C)c1NC(=O)C(c1ccccc1)N1CCN(C(=O)c2ccco2)CC1 (configuration not stated)	-17	140	-1.2	126	-1	i	0.9
CN1CCN(c2nc(Nc3ccccc3)nc(N)c2[N+](=O)[O-])CC1	/	/	/	103	/	i	1
COc1ccc(C(=O)/C=C/c2ccccc2)c(OC)c1	/	/	/	102	2	i	0.57
Cc1ccc(Cn2nnc3c(=O)n(CC(=O)OCc4ccccc4)cnc32)cc1	19	105	-1.8	126	-7	i	1.1
CCc1cccc(CC)c1-n1c(SCC(=O)N2CCc3ccccc3C2)nnc1-c1cccnc1	-16	93	1.1	129	-6	i	0.91
CC(C)NC(=O)CN1C(=O)C(=O)c2ccccc21	0	67	-2.3	57	-5	i	0.85
CC(NC(=O)c1cc(Br)ccc1Br)c1ccccc1 (configuration not stated)	/	/	/	109	-5	i	0.94
O=C(C1=NN(c2ccccc2)C2C(=O)N(c3ccccc3Cl)C(=O)C12)c1ccccc1 (configuration not stated)	-189	167	-0.7	108	-2	?	/
N#CC1=C(N)Oc2c(ccc3cccnc23)C1c1cccnc1 (configuration not stated)	-52	60	-0.3	94	-2	/	/

Continued.
SMILES	Insulin prom inh	Insulin prom inh cell count	GALR2 ag	RGS16-Gao HTS	PKD1 kinase inh	HSV augment	HSV augment primary fold
COCc1cc(=O)[nH]c(/N=C(\N)Nc2ccccc2C)n1	-33	112	-0.6	112	-5	i	0.93
CCC(C)[C@H](NC(=O)Nc1cccc(Br)c1)C(=O)OC (some centres not stated)	/	/	-1.4	104	-7	i	0.97
COc1ccc(/C=N/NC(=O)c2ccn[nH]2)cc1CN1CCOCC1	/	/	/	101	/	i	1.1
COc1cc(NS(=O)(=O)c2ccc(F)cc2)c(OC)cc1NC(C)=O	12	94	-2.4	99	2	i	0.91
CC(C)N(Cc1nc(-c2ccccc2)no1)C(=O)CN1C(=O)c2ccccc2C1=O	53	140	-0.1	95	2	i	1.1
CCOC(=O)Cn1nnc(-c2cccc(OC)c2)n1	/	/	-1.0	105	-5	i	1.1
C=CCOc1ccccc1/C=C/C(=O)O	33	63	-1.4	75	-11	i	0.89
O=C(COc1ccc(S(=O)(=O)NC2CCCCC2)cc1)N1CCN(c2ccc(F)cc2)CC1	/	/	-1.7	109	-1	i	1.1
O=c1c(C/C=C/c2ccccc2)c(O)ccn1Cc1cccc(Cl)c1	/	/	/	101	-8	i	1
Cc1ccc2nc(NC(=O)COC(=O)c3ccc(Br)o3)sc2c1	0	63	-2.1	92	-4	i	0.99
CCCCNS(=O)(=O)c1ccc(OC)cc1	-50	118	-0.1	-136	-3	i	0.93
CC(C)(Cc1ccc(O)cc1)NC(=O)CC(=O)N/N=C/c1ccc([N+](=O)[O-])cc1	-58	100	/	95	-3	i	0.83
O=C(c1ccc([N+](=O)[O-])s1)N1CCN(c2cccc(Cl)c2)CC1	/	/	-0.3	98	1	i	0.96
Clc1ccc(-c2nc3ccccn3c2CN2CCSCC2)cc1	-76	84	/	95	0	i	1.2
N#C/C(=C\c1ccc(N2CCOCC2)o1)C(=O)NCC1CCCO1 (configuration not stated)	/	/	/	98	2	?	/

Profiles as entered above. Screens in order: Insulin prom inh, Insulin prom inh cell count, GALR2 ag, RGS16-Gao HTS, PKD1 kinase inh, HSV augment, HSV augment primary fold
O=c1c(C/C=C/c2ccccc2)c(O)ccn1Cc1cccc(Cl)c1 in the list: /, /, /, 101, -8, i, 1
CC(C)(Cc1ccc(O)cc1)NC(=O)CC(=O)N/N=C/c1ccc([N+](=O)[O-])cc1 in the list: -58, 100, /, 95, -3, i, 0.83
CC(C)N(Cc1nc(-c2ccccc2)no1)C(=O)CN1C(=O)c2ccccc2C1=O in the list: 53, 140, -0.1, 95, 2, i, 1.1
COCc1cc(=O)[nH]c(/N=C(\N)Nc2ccccc2C)n1 in the list: -33, 112, -0.6, 112, -5, i, 0.93

Screening results (PubChem)
